CDC25B-CDK2 inh – human CDC25B-CDK2/CyclinA binding inhibition. z-score (no concentration beside the values). P30305+P24941. AID 1259370. 94,000 tested, 0.72% active. HTRF CDC25B-CDK2/CyclinA binding, anti-His/anti-Flag; hits give high values;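 note: score is relative to mean and SD of negative controls; strong numbers were not always called active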
HIV TAR-Tat – HIV-1 TAR-Tat binding disruption | HIV-1 TAR RNA, Tat peptide displacement FRET; hits give high values | z-score (no concentration beside the values) | 100,000 tested, 0.6% active | AID 1259389;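 note: score is relative to mean and SD of negative controls; some compounds called inactive have numbers as strong as hits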
* = called active by the depositor; x = not tested or not shown.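 Rule for the calls: active = z-score from 3 up in half or more of its runs; inactive = the rest.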

SMILES	CDC25B-CDK2 inh	HIV TAR-Tat
Cc1ccc(-c2cc(=O)[nH]c(Nc3nc(C)c4ccccc4n3)n2)cc1	-0.76	1.8
Cc1cc2n(n1)C(c1cc(Br)ccc1O)Nc1c(C)cccc1-2 (stereo not drawn)	-2.2	0.02
COc1cc(C2N3CC4(C)CN2CC(C)(C3)C4=O)ccc1O (stereo not drawn)	-0.28	0.36
Cc1ccccc1N1CSC2=C(C#N)C(c3cccc(F)c3)CC(=O)N2C1 (stereo not drawn)	8*	-1.5
CCOC(=O)c1c(NC(=O)COc2ccc(Br)c(C)c2)sc2c1CCC2	-22	0.57
CNS(=O)(=O)c1cn(CC(=O)N(C)C2CCCCC2)cc1S(=O)(=O)NC	x	-0.16
COc1c2c(cc3occ(-c4ccc5c(c4)OCO5)c(=O)c13)OC(C)(C)C=C2	x	-0.44
CC1(C)CC(=O)C2=C(C1)Nc1[nH]n(-c3ccccc3)c(=O)c1C2c1ccco1 (stereo not drawn)	-1.6	-0.64
CC(C)(C)NC(=O)CSc1cn(CC(=O)N2CCOCC2)c2ccccc12	x	0.35
CCC(C)NC(=O)c1nn(C)c2c1CSc1ccccc1-2 (stereo not drawn)	-0.81	1.5
CC(=O)/C(N=Nc1cc(Cl)cc(Cl)c1)=C(\C)O	-2	x
COCCn1cc(C(=O)CSc2nnc(-c3ccc4c(c3)OCCCO4)n2C)c2ccccc21	x	1.3
O=C(Cn1c(=O)oc2ccccc21)Nc1ccc(Cl)cc1F	x	-0.09
CCCNC(=O)CCCc1nc(-c2cccs2)no1	0.29	0.05
CCn1nc(C)c(CNS(=O)(=O)c2c(C)cc(C)cc2C)c1C	x	-0.82
NCCCC(=O)O	1.4	2.8
ON=C1C/C=C\CC(=NO)C/C=C\C1	-2.6	x
Cc1ccc(-c2nc(C#N)c(NCCCn3ccnc3)o2)cc1	-2.8	0.14
CC(C)=NN/C(N)=N/C(=S)Nc1ccccc1	-1.3	x
Cc1nc2sc(C(c3ccc(Cl)cc3)N3CCC(C)CC3)c(O)n2n1 (stereo not drawn)	0.44	x
CCOC(=O)C1CCN(C(=O)CCS(=O)(=O)c2ccc3c(c2)CC(C)N3C(=O)C2CC2)CC1 (stereo not drawn)	x	0.21
O=C(O)c1ccc(Cn2c(=O)c(=O)[nH]c3cccnc32)cc1	1.2	-0.03
CCc1c(O)c2ccccc2[nH]c1=O	-3.1	x
O=C(CSc1nc2ncccc2[nH]1)Nc1ccc(Cl)c(F)c1	-2.4	-0.01
COCC(=O)Nc1nc2ccc(OC)cc2s1	x	0.21
Cc1cc(C)c2c(=O)cc(CSc3nccn3Cc3ccccc3)[nH]c2c1	x	-1.6
O=C1C2(c3ccccc3)CN3CC1(c1ccccc1)CN(C2)C3c1cccnc1 (stereo not drawn)	1.2	1.3
O=c1[nH]c2cc([N+](=O)[O-])c([N+](=O)[O-])cc2[nH]c1=O	-2.6	x
CC(=O)N1N=C(c2cn(C(C)=O)c3ccccc23)OC1c1ccncc1 (stereo not drawn)	x	0.88
Cc1ccc2nc(Nc3ccccc3)c3nnnn3c2c1	x	-0.17
Cc1ccc(-c2nnc(NC3CCCCC3)c3ccccc23)cc1S(=O)(=O)NCC1CCCO1 (stereo not drawn)	-1	0.19
O=C(CN1CCN(c2ccc(Cl)cc2)CC1)c1ccc2c(c1)CCN2	-0.34	-0.03

Entries of single compounds, quoted from the list. Order of values: CDC25B-CDK2 inh | HIV TAR-Tat
Profile of `Cc1ccc(-c2nnc(NC3CCCCC3)c3ccccc23)cc1S(=O)(=O)NCC1CCCO1` (stereo not drawn) → -1 | 0.19
Profile of `O=c1[nH]c2cc([N+](=O)[O-])c([N+](=O)[O-])cc2[nH]c1=O` → -2.6 | x
Profile of `O=C1C2(c3ccccc3)CN3CC1(c1ccccc1)CN(C2)C3c1cccnc1` (stereo not drawn) → 1.2 | 1.3

(more compounds)
SMILES	CDC25B-CDK2 inh	HIV TAR-Tat
CCN1CCc2c(sc(-n3cccc3)c2C(C)NC(=O)Nc2ccc(F)cc2)C1 (stereo not drawn)	1.6	-5.2
CC(=O)NNc1nc(-c2ccccc2)c2cc(Br)ccc2n1	-3.5	x
COCCCNC(=O)c1sc2ncccc2c1-n1cccc1	x	0
CCCS(=O)(=O)c1ncc(Cl)c(C(=O)Nc2nc3ccc(Cl)cc3s2)n1	-2.2	2.2
Cc1ccc(-c2cn3nc(C4CC4)sc3n2)cc1C	-0.32	1.6
CCOc1ccc(N(C)S(=O)(=O)c2cc(-c3cc(C)no3)ccc2C)cc1	x	1.6
N#CC1=C(N)OC2=C(C(=O)CC(c3ccccc3)C2)C1c1c[nH]c2ccccc12 (stereo not drawn)	-3.2	x
CC1=C(c2ccc(C)cc2)S(=O)(=O)N(Cc2ccc(C(=O)NCc3ccco3)cc2)C1=O	x	1.3
COc1ccc(NC(=O)c2sc3nc4c(cc3c2N)CN(C)CC4)c(OC)c1	-1.6	1.5
Cc1ccccc1OCc1nc2c3c4c(sc3ncn2n1)CCCC4	-0.13	1.2
COc1ccc(N2CCN(c3ncc4c(n3)CCN(Cc3ccc(F)cc3F)C4)CC2)cc1	x	0.16
Cc1nc2ccccc2n1CCc1nc2c3ccccc3nc(NCCC(C)C)n2n1	-0.59	2.3
O=c1c2nncn2ccn1-c1ccc(F)c(F)c1	0.02	-6
O=C(Nc1nnc2n1CCS2)C1CC(=O)N(c2ccc(Cl)cc2)C1 (stereo not drawn)	x	0.29
CN1C(=O)C(C)(C)c2cc(S(=O)(=O)N3CCCC3C(=O)NC3CCCC3)ccc21 (stereo not drawn)	x	1.7
O=C(Nc1ccccc1Cl)c1cc(-c2cccs2)on1	-1.5	2.3

The last 2 records of the part before lead into the next:
Screens in order: CDC25B-CDK2 inh, HIV TAR-Tat
- CN1C(=O)C(C)(C)c2cc(S(=O)(=O)N3CCCC3C(=O)NC3CCCC3)ccc21 (stereo not drawn)
 : x, 1.7
- O=C(Nc1ccccc1Cl)c1cc(-c2cccs2)on1
 : -1.5, 2.3
- Cc1noc(C)c1NC(=O)Nc1cc(C(F)(F)F)cc(C(F)(F)F)c1
 : -1, x
- O=c1c(Nc2ccc(F)cc2Cl)c(-c2ccc3c(c2)CCCC3)c1=O
 : x, 0.55
- Cc1cccc(CSc2nnc(CCCCCN)o2)c1
 : -2.4, 0.53
- COc1ccc(Cn2cc3c(-c4ccc(OC)cc4)nnc-3c3cc4c(cc32)OCCO4)cc1
 : -1, 2.5
- C=Cc1ccc(Cn2c(C)c(CNCCc3cccs3)c(C(=O)O)c2C)cc1
 : -0.19, 1.6
- O=C(Oc1cc(-c2ccccc2)c2oc(=O)sc2c1)c1ccco1
 : -4.2, 1.1
- CCOC(=O)C1=C(C)NC(=O)NC1c1ccccc1C(F)(F)F (stereo not drawn)
 : -0.66, x
- Cc1ccc(C(=O)n2nc(-c3ccc(C)c(C)c3)nc2N)cc1
 : -0.21, 1.6
- Cc1oc2ncn3nc(-c4cccnc4)nc3c2c1C
 : x, 0.51
- O=C(Nc1cccnc1)c1ccc(Oc2cc(Cl)cc(Cl)c2)o1
 : 0.11, x
- COc1cccc(/C=C/c2nc(C#N)c(N(C)C)o2)c1
 : -1.1, 2.4
- COc1cccc(NC(=O)NC(C)c2c(-n3cccc3)sc(C)c2C)c1 (stereo not drawn)
 : -0.93, 0.84
- Cc1ccc(Sc2cccc3nc(N)nc(N)c23)cc1
 : -1.6, x
- CCOC(=O)Cc1csc(NC(=O)CCN2C(=O)c3cccc([N+](=O)[O-])c3C2=O)n1
 : -1.7, x
- CCOc1ccc(C2Nc3ccccc3-c3cc(C)nn32)cc1 (stereo not drawn)
 : -0.76, 3
- c1ccc(-c2nn3c(Cn4nnc5ccccc54)nnc3s2)nc1
 : -1.1, 2.5
- Cc1oc(-c2ccc(Cl)cc2)cc1-c1ccn[nH]1
 : -3.7, x
- CCc1ccc2oc(C(=O)Nc3nonc3C)c(C)c2c1
 : -0.81, 2.3
- COc1cccc(-n2nnc(S(=O)(=O)c3ccccc3)c2C)c1
 : -0.32, 1
- COC(=O)C(C)NC(=O)NCc1c(C)nn(C)c1C (stereo not drawn)
 : x, 0.79
- CC(=O)Oc1cc(C(F)(F)F)ccc1C(=O)O
 : -1.4, x
- COC(=O)c1c(N)n(-c2ccc(OC)cc2)c2nc3ccccc3nc12
 : 0.69, 1.5
- CCOC(=O)C(C)Sc1ncnc2sc(C)c(C)c12 (stereo not drawn)
 : -0.86, x
- CC1Cc2ccccc2N1C(=O)Cn1cnc(S(=O)(=O)N2CCCC2)c1 (stereo not drawn)
 : x, -0.71
- Cc1cc(C(=O)O)cc(=O)[nH]1
 : -0.97, x
- O=C(NCCOCCn1c(=O)oc2ccccc21)Nc1cccc(Cl)c1
 : -0.31, 1.5
- CC(C)COC(=O)C(C)Oc1ccc2c(c1)oc(=O)c1ccccc12 (stereo not drawn)
 : -0.77, 0.48
- Cc1c(C(=O)O)nn(-c2ccccc2)c(=O)c1C#N
 : 0.28, -0.61
- Cc1c2cnn(-c3ccccc3)c(=O)c2c(C)n1C(C)C(=O)Nc1ccc(F)cc1 (stereo not drawn)
 : -1.6, 1
- Cc1ccc(C2Nc3ccccc3NC3=C2C(=O)CC(c2cccs2)C3)s1 (stereo not drawn)
 : x, 0.57
- O=C(NC1CCS(=O)(=O)C1)c1ccc(-c2ccccn2)s1 (stereo not drawn)
 : -1.6, x
- Cc1ccc(-c2nnc3c4ccccc4c(C)nn23)cc1S(=O)(=O)NCc1ccccc1
 : -1, 0.1
- CCN(CC)CCNc1nc(-c2ccccc2)c2c(c1C#N)CC(C)(C)OC2
 : -0.03, 2.1
- COC(=O)c1c(NC(=O)Nc2cccc(OC)c2)sc2c1CCCC2
 : -0.25, 0.88
- O=C(CSc1nnc2ccccn12)c1ccc2c(c1)OCO2
 : -0.53, -1.2
- CCN(CC)CCNC(=O)C1CCCN(c2nnc(N3CCCC3=O)s2)C1 (stereo not drawn)
 : x, 1.3
- O=C(O)CN1CCN(Cc2ccc(Cl)cc2)C1=O
 : -1.2, x
- Cc1ccc2c(c1)c1c(n2CC(O)CN2CCOCC2)C(=O)CCC1 (stereo not drawn)
 : 0.44, x
- O=C(NCc1ccccn1)c1ccc2c(=O)n3nc(NCc4ccccc4)sc3nc2c1
 : -0.69, 1.1
- COc1ccc(C2CC(=O)Nc3c2cnn3-c2nc3ccccc3s2)cc1O (stereo not drawn)
 : x, 0.44
- O=C(Nc1ccccc1)C1=C(N2CCN(c3ccccc3F)CC2)c2ccccc2S1(=O)=O
 : x, 1.1
- COc1ccc(C2C(=O)c3ccccc3C2=O)cc1
 : -0.63, 0.86
- O=c1[nH]cnc2cc(-c3ccc(F)cc3)sc12
 : -0.95, x
- Cn1c(=O)c2c(-c3ccc(Br)cc3)n(-c3ccccc3N)cc2n(C)c1=O
 : -2.1, 1.6
- CC(C)/C(=N\NS(=O)(=O)c1ccc(Br)cc1)c1cccs1
 : 0.89, x
- c1ccc(-c2nc3ccccc3nc2-c2cccs2)cc1
 : -3.1, 1.5
- O=C(COc1ccccc1F)Nc1ccccc1SCc1cc(=O)c2ccccc2[nH]1
 : x, -7.4
- O=C(C1CCN(c2nnc(N3CCCC3=O)s2)CC1)N1CCc2ccccc2C1
 : -2.1, -1.2
- COc1ccc(C2C(C(N)=O)=C(C)Nc3nc(SCc4ccccc4)nn32)cc1OC (stereo not drawn)
 : 1.1, x
- CCN(CC)CCNc1nc(NCc2ccc(C)cc2)c2cnn(C)c2n1
 : x, 1.1
- Cc1[nH]nc(-c2ccc(S(=O)(=O)Nc3cccc(-c4ccno4)c3)s2)c1C
 : x, 0.77
- COc1ccc(N2CCN(Cc3cccn3-c3nnc(N4CCCCC4)s3)CC2)cc1
 : x, 2.6
- S=C1SCN(Cc2cccs2)CN1Cc1cccs1
 : -2.4, x
- COCC1=CC2CC(C1)C[B-]1(C2)Oc2cccc3ccc[n+]1c23 (stereo not drawn)
 : 5.2*, x
- COc1ccc(C2=NOC(CN3C(=O)c4ccccc4S3(=O)=O)C2)cc1 (stereo not drawn)
 : -1.1, -0.69
- O=C(O)COc1nsnc1N1CCOCC1
 : -2.3, x
- CC1(c2ccncc2)Nc2ccccc2-c2nc3ccccc3n21 (stereo not drawn)
 : -0.66, x
- CCOC(=O)C1CCN(C(=O)c2c(-c3c(F)cccc3Cl)noc2C)CC1
 : 0.22, x
- Cc1cc2c(cc3c(=O)n(CCCC(=O)NCc4cccnc4)nc(C)n32)o1
 : -1, 0.65
- Cc1oc2ccc(OC(=O)C(C)C)cc2c1C(=O)OC(C)C
 : -0.98, x

In a second layout: results already given.
O=c1[nH]cnc2cc(-c3ccc(F)cc3)sc12
  CDC25B-CDK2 inh: -0.95 | HIV TAR-Tat: x

Cc1oc2ncn3nc(-c4cccnc4)nc3c2c1C
  CDC25B-CDK2 inh: x | HIV TAR-Tat: 0.51

O=C(CSc1nc2ncccc2[nH]1)Nc1ccc(Cl)c(F)c1
  CDC25B-CDK2 inh: -2.4 | HIV TAR-Tat: -0.01

CC(=O)N1N=C(c2cn(C(C)=O)c3ccccc23)OC1c1ccncc1 (stereo not drawn)
  CDC25B-CDK2 inh: x | HIV TAR-Tat: 0.88

(continued)
Screens in order: CDC25B-CDK2 inh, HIV TAR-Tat
- CCOc1ccccc1NS(=O)(=O)c1c(C)[nH]c(=O)[nH]c1=O
 : x, 1.4
- Cc1nc(C)c(S(=O)(=O)NCc2ccc(N3CCN(C)CC3)cc2)s1
 : -1.6, x
- NC(=O)c1noc2c1COc1ccccc1-2
 : -0.53, 1.7
- COC(=O)C1=C(C)NC2=C(C(=O)CC(C)(C)C2)C1c1cn[nH]c1-c1ccccc1 (stereo not drawn)
 : -0.42, x
- NC(=O)C1CCN(C(=O)CN2c3ccccc3S(=O)(=O)c3ccccc32)CC1
 : x, -0.76
- COC(=O)COc1cnnc2ccccc12
 : -0.71, -0.73
- CN1CCN(CCN2C(=O)c3ccc(-c4ccco4)n3CC2(C)C(=O)NC2CCCCC2)CC1 (stereo not drawn)
 : x, -0.6
- CC(C)(C)OC(=O)N1CCCN(S(=O)(=O)c2ccc3c(c2)CCO3)CC1
 : -1.7, x
